# Screening data: PubChem, several laboratories
# Env fusion inh: HIV envelope-mediated fusion inhibition. HeLa-JRFL Env/CEM21 cell fusion, luciferase. inhibition, % at 12.3 µM. actives 1.1% (n = 360,000). AID 651610;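 active = mean replicate inhibition score of at least 50 and every replicate individually at or above 50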;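 also: 0% = plate neutral controls and 100% = maraviroc near 300 nM; one replicate is shown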
# PABP FP inh: PABP-poly(A) binding inhibition. P11940. PABP-poly(A) RNA binding, fluorescence polarization. inhibition, % at 35 µM. actives 1% (n = 290,000). AID 2014;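 active = 50% or more with normal probe brightness, or confirmed in later tests; about a fifth of its hits are not listed in these tables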;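 also: calls also rest on retests at 20 µM and on dose response follow-up; controls were probe without protein and protein plus probe with vehicle; some compounds called inactive have numbers as strong as hits; many hits fall short of the cut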
# MT1-MMP act inh: inhibitors of human MT1-MMP activation | GFP/RFP ratio change, % at 20 µM | HT1080 RFP-PRO-GFP cells, GFP/RFP ratio fluorescence, overnight; percent of plate control window, DMSO zero | P50281 | actives 0.061% (n = 360,000) | AID 651647;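 active = GFP/RFP ratio change of at least 30% with cell ATP level not reduced by more than half and red fluorescence within 50% of control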; also: strong numbers were not always called active
#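 Test system: HT1080 RFP-PRO-GFP cells; Benchmarks: DMSO and RFP-L50D-GFP cell wells; Timing: cells overnight before dosing, compound overnight, 37 °C, 5% CO2; Compound: one 20 µM compound dose with 1% DMSO; Read-out: GFP/RFP fluorescence ratio.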
# Rce1 inh: yeast Ras-converting enzyme inhibition; Q03530; yeast membranes, quenched prenylated peptide cleavage fluorescence; calls only; actives 0.27% (n = 290,000); AID 2563;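 active = fall in fluorescence gain of 50% or more versus controls, with final raw signal at or below 3038400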;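 also: plate controls were neutral control wells for no effect and wells lacking membranes for full effect; tested at 10 µM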
# Target sequence (Q03530 whole entry, looked up): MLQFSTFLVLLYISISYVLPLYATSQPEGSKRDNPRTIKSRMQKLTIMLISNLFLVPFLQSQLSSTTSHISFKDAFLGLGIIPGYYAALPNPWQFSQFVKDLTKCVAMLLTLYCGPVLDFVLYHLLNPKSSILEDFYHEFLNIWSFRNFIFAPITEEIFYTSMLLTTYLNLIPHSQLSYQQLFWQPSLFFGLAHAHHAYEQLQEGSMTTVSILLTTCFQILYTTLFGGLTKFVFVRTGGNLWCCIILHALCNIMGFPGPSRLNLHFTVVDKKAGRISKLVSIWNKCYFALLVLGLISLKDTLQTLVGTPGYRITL
# Yeast UUG start: modulators of start codon recognition fidelity in yeast; S. cerevisiae UUG-firefly luciferase reporter, luminescence/redox ratio; activity score, % at 18.7 µM; actives 0.13% (n = 350,000);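 active = replicate mean at a twofold rise or more, about +100% in these data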;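 also: firefly luciferase made from a UUG start codon reports start codon fidelity; reporter light over untreated wells divided by growth signal over untreated wells; some hits fall short of that in this replicate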
# CSC inhib: blocks cancer stem cells | cancer stem cell-like cells viability, luminescence | actives 1.1% (n = 300,000) | AID 2717 | inhibition, % at 7.5 µM;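 active = mean at 75% or more and at least half the replicates too; tested in HMLE shEcad cells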;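 also: 0% = median of negative and 100% = median of positive control wells; the first replicate is given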
# eIF4H inh: inhibitors of RNA binding by human eIF4H; Q15056; eIF4H fluorescence polarization binding assay; inhibition, % at 35 µM; actives 0.94% (n = 290,000); AID 2012;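 active = 50% or more with normal probe brightness, or confirmed in later tests; about a fifth of its hits are not listed in these tables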;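 also: calls also rest on retests at 20 µM and on dose response follow-up; 0% = protein and probe with vehicle and 100% = probe without protein; strong numbers were not always called active; many hits fall short of the cut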
# MT1-MMP act inh RFP: also measured in MT1-MMP act inh; calls as there; RFP signal change, %; measured here: RFP expression control read;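 0 = vehicle wells; hits needed this value within 50% of zero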
# Numbers without * were called inactive; i = inactive; · = not tested or not shown; & = joins results of further samples.
Compound	Env fusion inh	PABP FP inh	MT1-MMP act inh	MT1-MMP act inh RFP	Rce1 inh	Yeast UUG start	CSC inhib	eIF4H inh
CC(C)Oc1ccc(S(=O)(=O)N2CCCCC2)cc1NC(=O)C1=NN(c2ccccc2)C(=O)CC1	38.5	·	5.6	-4.3	·	-20.2	·	·
COc1ccc(-c2nnc(NC(=O)c3c(OC)cccc3OC)s2)cc1	-52.3	-8.4	-4.4	-2.2	i	-0.9	12.1	-1.5
Cc1cc(C)cc(NC(=O)CSc2nncn2-c2ccccn2)c1	14.9	-3.0	-1.7	2.3	i	-10.4	-3.5	-7.1
COc1ccc(CNC(=O)C[C@H]2C[C@H](C(=O)N3CCOCC3)[C@@]3(CCC4CCCC4)c4[nH]c5cc(CCC(=O)N(C)C)ccc5c4CCN3C2=O)cc1OC	-1.6	·	-0.7	-0.2	·	9.9	·	·
O=C(CN1C(=O)/C(=C\c2ccc(F)cc2)Oc2ccccc21)N1CCN(c2ccccn2)CC1	·	8.4	6.3	-2.8	i	-5.5	5.4	-2.1
CC(=O)Nc1cccc(NC(=O)c2ccccc2Cl)c1	2.4	·	0.5	0.5	·	-10.4&-3.6	·	·
Cc1nc(SCC(=O)N2CCN(C(=O)c3ccco3)CC2)c2c(C)c(C)sc2n1	-10.7	7.3	2.3	-2.7	i	-15.1	·	9.7
O=C1NCCCC1C(=O)N/N=C/c1cccc(Cl)c1 (configuration not stated)	-1.2	19.5	-0.8	1.8	i	·	-16.4	12.0
CCN(CC)C(=O)Cn1cnc([N+](=O)[O-])n1	·	0.7	3.9	-1.6	i	8.1	2.6	0.2
CCc1ccc(C(C)NC(=O)c2ncn[nH]2)cc1 (configuration not stated)	3.1	7.0	-5.2	-5.5	i	-32.3	-1.7	13.8
O=C(C[n+]1ccccc1)N1c2ccccc2Sc2ccccc21	16.6	3.3	1.5	7.8	i	·	-7.7	-4.6
Cc1ccc(-c2noc(CN(C(=O)CCN3C(=O)c4ccccc4C3=O)C(C)C)n2)cc1	5.3	-0.1	23.7	2.2	i	9.0	7.6	-1.2
O=C(CSc1ccc(-c2cccs2)nn1)Nc1ccccc1F	-6.2	-0.4	2.0	-1.7	i	·	-4.4	0.1
Cc1ccc(C(=O)ON=C2CCN(c3ccc([N+](=O)[O-])cc3)CC2)cc1	-71.5	-2.5	12.5	-2.1	i	-15.2	5.8	-13.2
CC(=O)N1CCc2c(sc(NC(=O)c3ccc4c(c3)OCCO4)c2C#N)C1	-99.5	4.5	1.5	-8.7	i	-12.3	41.5	-9.4
CCCC(=O)NC(c1ccc(OC)c(OC)c1)c1cc(Cl)c2cccnc2c1O (configuration not stated)	10.5	4.1	0.1	-2.4	i	·	-9.8	29.3
O=C(CC1C(=O)NCCN1Cc1cccc(Oc2ccccc2)c1)NCC1CCOCC1 (configuration not stated)	14.6	3.2	-2.0	-3.0	i	·	-3.1	14.4
CC1=C/C(=N\NC(=S)NCCc2ccccc2)CC(C)(C)C1	-14.9	-8.4	-0.7	-6.6	i	-36.7	58.8	3.4
CCCCCC(=O)Nc1cccc(C2=NOC3(C2)C[C@H](C(N)=O)N(C(=O)c2ccccc2C(=O)c2ccccc2)C3)c1 (some centres not stated)	3.3	7.1	4.5	-1.8	i	9.3	-11.9	2.9
C/C=C/c1ccc(OCC(=O)OCC(=O)NC2CC2)c(OC)c1	3.1	-1.3	-0.1	3.4	·	·	·	9.9
Cc1ccc(NC(=S)Nc2cc(-c3ccccc3)[nH]n2)cc1Cl	12.7	28.0	-1.2	-3.2	i	-25.8	3.3	0.3
C[C@@H](c1ccccc1)N1C[C@H]2CCCN2c2cc(Br)ccc2S1(=O)=O	-26.1	·	-8.7	-17.2	·	-5.9	·	·
COc1cc(NC(=O)Cn2cnc(S(=O)(=O)N3CCc4ccccc43)c2)cc(OC)c1OC	-1.1	1.6	2.7	-2.4	i	1.3	1.2	-11.4
CC(C)[C@H](N)C(=O)NC[C@H]1O[C@@H](n2cnc3c(N)ncnc32)[C@H](O)[C@@H]1O	-14.7	·	-0.7	1.8	·	-24.3	·	·
COCCn1c(SCC(=O)N2CCC(C)CC2)nc2ccccc2c1=O	11.1	5.9	-1.7	-0.5	i	-3.2	-18.8	-4.4
COC(=O)c1cccc(N(CC(=O)NC2CCCCC2)C(=O)CNC(=O)c2cccs2)c1	-4.1	8.6	-3.1	0.8	i	14.1	-13.8	1.9
O=C(Cn1cc(COc2ccc(C(=O)c3ccccc3)cc2)nn1)c1ccc(O)cc1	-9.7	·	2.5	-5.3	·	8.4	·	·
COc1cc(CN2CCN(Cc3ccco3)CC2)cc(OC)c1	-9.8	9.8	1.5	1.1	i	·	5.8	10.1
Cc1ccc2c(c1)N(CC(=O)N1CCN(C3CCCCC3)CC1)C(=O)CO2	13.6	-5.3	1.9	4.4	i	-1.2	-1.6	-9.7
NC(=O)C[C@H](NC(=O)c1ccc(Cl)cc1)C(=O)OCc1ccccc1	·	·	-2.4	2.2	·	7.4	-22.1	·
CCOc1ccc(NC(=O)COC(=O)c2n[nH]c3ccccc23)cc1	-10.7	·	3.4	5.1	·	-12.5	-12.7	·
O=C(O)c1cccc(CSc2n[nH]c(-c3ccc(Cl)cc3Cl)n2)c1	13.7	35.7	1.0	2.4	i	·	-3.8	8.7
COc1ccc(Nc2nc(N)nc(CN3CCN(c4ccc(F)cc4)CC3)n2)cc1	19.4	-12.9	7.9	2.1	i	-22.8	-17.5	-5.3
Cn1cc([N+](=O)[O-])c(C(=O)n2cccn2)n1	-10.1	0.6	1.1	-1.9	i	·	-9.7	-1.4
Cc1cc(C(=O)CSc2ncnc3ccccc23)c(C)n1C1CC1	-6.7	·	-8.3	-23.0	·	-20.6	·	·
S=c1[nH]ccn1CCc1ccccc1	20.5	-9.0	4.9	4.0	i	-16.3	4.9	-4.1
CCOC(=O)C1=C(c2ccccc2)NC(=O)NC1c1cc(OCC)c(O)c([N+](=O)[O-])c1 (configuration not stated)	-15.8	12.9	0.8	2.4	i	6.4	-0.8	-4.6
Cc1cc(C)nc(SCc2nnc(SCC(=O)Nc3nc(-c4ccccc4)cs3)n2-c2ccccc2)n1	-0.6	-5.6	-9.8	-8.8	i	-8.2	4.7	-10.7
Cc1[nH]ncc1Nc1ccccc1C(C)C	-12.6	·	4.2	0.5	·	-16.5	·	·
COc1ccc(OC)c(NC(=O)CN2C(=O)NC3(CCOc4ccccc43)C2=O)c1 (configuration not stated)	·	-10.4	-11.7	-2.2	i	-14.8	-14.7	4.7
O=C(CN1CCN(Cc2ccccc2Cl)C1=O)NCc1ccccn1	17.6	5.4	-0.1	2.4	i	-24.6	-4.9	3.7
Cc1sc2nc(CSCC(=O)Nc3ccc(OC(F)F)cc3)[nH]c(=O)c2c1C	15.9	-1.8	-2.1	-0.8	i	·	-9.6	-1.5
CN(Cc1ccccc1)C(=O)c1cccc(C(=O)N(C)Cc2ccccc2)c1	7.3	9.3	5.2	3.6	i	·	-4.7	9.6
O=C(c1c[nH]c2ccccc12)C(F)(F)F	-46.2	-8.5	-1.1	3.1	i	-2.1	-3.9	-7.1
CCCCCN1N=C(C)CC1=O	19.1	3.3	4.5	1.8	i	·	3.7	-2.6
O=[N+]([O-])c1cccnc1Oc1ccc(F)cc1F	1.0	-8.5	-1.2	-1.9	·	·	-0.3	-12.4
O=C(Nc1ccnn1C1CCN(C(=O)c2cccc(Cl)c2)CC1)C1CCOC1 (configuration not stated)	12.8	-2.5	-1.2	3.5	i	-6.9	11.2	-12.3
CC(=O)NC(Cc1ccccc1F)C(=O)NC1CCN(C(=O)Nc2ccc(C)cc2)CC1 (configuration not stated)	1.0	7.4	1.6	2.4	i	-6.8	8.6	0.2
CC1(C)CC2CC(C)(CN2C(=O)COC(=O)c2ccccc2C(F)(F)F)C1 (configuration not stated)	·	·	-3.3	-3.9	·	3.2	55.4	·
COc1ccc(/C(O)=C2\C(=O)C(=O)N(c3cc(C)on3)C2c2ccccc2OC)cc1 (configuration not stated)	·	8.4	14.8	9.8	i	-11.4	-9.6	-14.5

# Next results follow:
Compound	Env fusion inh	PABP FP inh	MT1-MMP act inh	MT1-MMP act inh RFP	Rce1 inh	Yeast UUG start	CSC inhib	eIF4H inh
NC(=O)CC(NC(=O)c1ccccc1)c1ccc(N2CCCCCCC2)c([N+](=O)[O-])c1 (configuration not stated)	9.6	7.6	8.8	-4.0	i	-18.8	2.9	5.7
Cc1ccc(/C=N/NC(=S)NCCc2ccccc2)s1	4.5	-2.6	0.3	3.3	i	·	-7.4	13.5
COC(=O)c1cc(C(=O)OCC(=O)N(C)C2CCS(=O)(=O)C2)cc([N+](=O)[O-])c1 (configuration not stated)	-1.6	-1.1	-1.1	5.0	i	-10.0	-1.3	0.3
COc1cccc(-n2nnnc2SCC(=O)Nc2ccc(NC(C)=O)cc2)c1	0.5	-1.4	-3.3	-0.5	i	-9.9	6.0	-7.4
CS(=O)(=O)N(CC(=O)Nc1cc(Cl)ccc1Cl)c1ccccc1	·	-6.4	-1.2	-0.9	·	-15.4	·	-19.2
COc1ccccc1NC(=O)N1CCN(c2ccnc3cc(Cl)ccc23)CC1	26.1	-6.6	3.6	-2.6	i	·	-14.4	-12.9
O=[N+]([O-])c1ccccc1N/N=C\c1ccccc1F	-131.0	-9.5	3.6	-4.0	i	-17.4	2.7	-7.8
CCOc1ccccc1N(CC(=O)NCc1ccccc1)C(=O)CCC(=O)Nc1cc(C)ccn1	-14.8	-0.1	-4.4	1.3	i	·	-2.2	-1.9
CCCCN(CCCC)CCCNC(=O)CC1Oc2ccc(C)cc2NC1=O (configuration not stated)	·	-4.4	-0.2	0.4	i	·	0.4	-10.8
COc1ccc(-c2ccc(CO)o2)cc1N	-4.9	0.1	3.3	1.7	i	·	2.4	-2.1
CC(C)n1c2ccccc2c2cc([N+](=O)[O-])ccc21	24.9	-1.7	-3.2	-0.3	i	·	-12.8	-9.8
CN1C(=O)Cc2cc(S(=O)(=O)NCCc3ccccc3)ccc21	2.0	-2.4	1.3	5.7	i	-9.5	-6.0	-0.4
CCC(C)(C)NC(=O)C(c1cccc(OC)c1)N(C(=O)c1ccn[nH]1)c1cccc(OC)c1 (configuration not stated)	-103.3	-7.6	4.1	-0.1	i	-16.1	-15.9	-5.6
CC(=O)NC(CCS(C)(=O)=O)C(=O)Nc1ccc2c(c1)OCO2 (configuration not stated)	7.4	4.5	-6.0	0.7	i	-5.7	-18.0	1.2
CCn1c(=NC(=O)C2COc3ccccc3O2)sc2c(C)ccc(OC)c21 (configuration not stated)	7.0	13.7	2.0	-4.0	i	·	31.9	6.6

# A portion of the library; rates above refer to the full screens.
